Cruzain noTriton – blocks cruzain activity in detergent-free assay; P25779; purified cruzain, Z-FR-AMC fluorescence, no detergent; Potency, µM, for inactives: max response, negative = inhibition, usual class: inhibitors; 200,000 compounds, 2.3% hits;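 further: plate controls were enzyme without inhibitor for no effect and buffer without enzyme for full effect; nearly all actives have a fitted effect of over 40% in size; top concentration of the series not given in the record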
Target sequence (P25779 123-467 limits assumed): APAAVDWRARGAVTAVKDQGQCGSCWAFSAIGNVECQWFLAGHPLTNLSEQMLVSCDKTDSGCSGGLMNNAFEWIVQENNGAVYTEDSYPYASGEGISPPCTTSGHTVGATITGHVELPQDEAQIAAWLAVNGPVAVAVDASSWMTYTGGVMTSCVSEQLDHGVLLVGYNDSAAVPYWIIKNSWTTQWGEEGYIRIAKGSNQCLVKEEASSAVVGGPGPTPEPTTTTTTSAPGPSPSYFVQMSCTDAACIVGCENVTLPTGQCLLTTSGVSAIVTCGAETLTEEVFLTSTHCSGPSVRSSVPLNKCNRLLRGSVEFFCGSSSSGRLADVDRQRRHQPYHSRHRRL
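Purified cruzain at 1.5 nM, pre-incubated 15 min with compound at room temperature in 100 mM sodium acetate pH 5.5, 5 mM DTT, 0.00005% Triton X-100. Reaction started with 2 uM Z-FR-AMC; AMC fluorescence increase over 60 s gives rate.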
NS1 function inh – influenza NS1 inhibition. S. cerevisiae slowed by influenza A NS1, growth recovery by OD600. Potency, µM (top dose mostly 46.1 µM), inactives show at the top dose activity, positive = more growth. 270,000 compounds, 0.4% hits; active means well fitted rising curve with a large enough effect; inconclusive means small, poorly fitted or top-dose-only effect; inactive means no such curve, though single readings can be large or run the other way; further: nearly all actives have a fitted effect of over 50% in size
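S. cerevisiae expressing influenza A NS1, grown in glucose, washed, then diluted 1:100 into pH 6.0 -URA galactose medium with 23 nl compound. Growth recovery read as OD600; NS1-free strain serves as control.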
StopGo reporter – FMDV 2A StopGo reporter, luciferase signal; human cells with a luciferase reporter of 2A StopGo recoding; control for the full effect not named in the record; Potency, µM (doses to about 57.9 µM), for the others: at the top dose signal change, negative = less light; 410,000 compounds, 1.2% hits; AID 1159524; active = well fitted falling curve with a large enough effect; inconclusive = small, poorly fitted or top-dose-only effect; inactive = no such curve, though single readings can be large or run the other way; tested in HEK293T cells; further: on the % scale 0 is the no-effect control and ±100 the full control effect; nearly all actives have a fitted effect of over 45% in size; luciferase light after 4 h
RE007 growth inh – less growth of the S. pombe RE007 Vpr strain | S. pombe RE007 Vpr strain, BacTiter-Glo ATP luminescence, 24 h; control for the full effect not named in the record | Potency, µM (highest dose often 92.2 µM), for the others: top-dose activity change, negative = less growth | 360,000 compounds, 0.21% hits; active = well fitted falling curve with a large enough effect; inconclusive = small, poorly fitted or top-dose-only effect; inactive = no such curve, though single readings can be large or run the other way;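 further: on the % scale 0 is the no-effect control and ±100 the full control effect; nearly all actives have a fitted effect of over 50% in size; the assay follows cell death caused by Vpr and the record does not say whether a fall means rescue or toxicity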
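Fission yeast RE007 carrying one integrated HIV-1 vpr copy, seeded at OD 0.01 in PMG+AL medium with 23 nL pinned compound. Grown 24 h at 30 degrees; viability read by BacTiter-Glo luminescence after 5 min.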
Cruzain inh Det – inhibitors of Trypanosoma cruzi cruzain with detergent | P25779 | purified cruzain, Z-FR-AMC fluorescence, 0.01% Triton | Potency, µM, for the others: max response, negative = inhibition, most hits filed as inhibitors | 200,000 compounds, 0.43% hits | AID 1478;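 further: plate controls were neutral wells for no effect and buffer without enzyme for full effect; nearly all actives have a fitted effect of over 40% in size; top concentration of the series not given in the record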
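15 min RT preincubation of 1.5 nM cruzain with compound, then 2 uM Z-FR-AMC added; kinetic AMC fluorescence, 60 s delta. Triton X-100 0.01%, pH 5.5.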
SARS PLP yeast – SARS-CoV PLP inhibition in yeast | AID 485353 | 330,000 compounds, 0.19% hits | Potency, µM (series often up to 32.9 µM), inactives show at the top dose activity, positive = growth rescue | S. cerevisiae expressing SARS-CoV PLpro, growth rescue; control for the full effect not named in the record; active means well fitted rising curve with a large enough effect; inconclusive means small, poorly fitted or top-dose-only effect; inactive means no such curve, though single readings can be large or run the other way; further: 0% is about no effect; nearly all actives have a fitted effect of over 55% in size; growth read by luminescence after 48 h
Marburg entry inh – Marburg virus entry inhibition; Potency, µM (highest dose often 37.8 µM), inactives show top-dose activity change, negative = inhibition, most hits filed as inhibitors; AID 540276; 300,000 compounds, 1.8% hits; Marburg virus pseudotyped entry inhibition, cell reporter; control for the full effect not named in the record; about a third of the inactives were read at about 46 µM; active = well fitted inhibition curve with a large enough effect; inconclusive = small, poorly fitted or top-dose-only effect, or effect the other way; inactive = flat fitted curve, though single readings scatter; tested in HEK293 cells; about a fifth of its hits are not listed in these tables; further: on the % scale 0 is the no-effect control and ±100 the full control effect; luciferase read-out
LASV entry inh – blocks Lassa virus binding to or entry into cells; Potency, µM (highest dose often 37.9 µM), inactives show at the top dose activity change, negative = inhibition, usual class: inhibitors; 300,000 compounds, 1.2% hits; AID 540256; Lassa virus pseudotype entry inhibition, cell reporter; control for the full effect not named in the record; active means well fitted inhibition curve with a large enough effect; inconclusive means small, poorly fitted or top-dose-only effect, or effect the other way; inactive means flat fitted curve, though single readings scatter; tested in HEK293 cells; further: on the % scale 0 is the no-effect control and ±100 the full control effect; nearly all actives have a fitted effect of over 50% in size; luciferase read-out
* hit, by the source's call; ? = inconclusive; nt = not tested or not shown; & = joins results of further samples; [ ] = another dose, or the depositor's remark. Unless noted, the call rests on the fitted dose curve; in most records, active means well fitted curve in the direction sought with a large enough effect; inconclusive means small, poorly fitted or top-dose-only effect, or another doubt; inactive means no such curve, though single readings can be large; an effect the other way counts as inactive or inconclusive. Potency means the concentration at half of the fitted maximal effect.

SMILES	Cruzain noTriton	NS1 function inh	StopGo reporter	RE007 growth inh	Cruzain inh Det	SARS PLP yeast	Marburg entry inh	LASV entry inh
CCN(CC)C(=O)c1cccc(C)c1	0%&-3%	nt	-23%&-11%	-1%	-1.2%&2.6%	nt	nt	nt
COc1ccc(CN(CC(=O)NC2CCCC2)C(=O)c2csnn2)cc1	nt	-11%	21%	4%	nt	-1%	-7%[46.1 µM]	16%
CC(CN1CCN(C/C=C/c2ccccc2)CC1)c1ccccc1 (stereo unspecified)	nt	-8%	-8%	-5%	nt	1%	?	28%
Cn1c(CCN2CCOCC2)nc2cc(NC(=O)COc3ccccc3)ccc21	3%	6%	-5%	-19%	-0.9%	0%	?	-3%
CCOc1ccc2nc(SC3CC(=O)N(c4ccc(OC)cc4OC)C3=O)sc2c1 (stereo unspecified)	nt	-4%	12%	-8%	nt	-2%	nt	nt
Brc1cnc(N2CCCC2)nc1N1CCCCC1	3%	-95%	-9%	-13%	0.5%	-4%	1%	nt
CC(=O)NCCC(=O)Nc1cc(S(=O)(=O)Nc2ccc(Cl)cc2)ccc1N1CCCC1	nt	-3%	-1%	1%	nt	-4%	-23%[46.1 µM]	-8%[46.1 µM]
COc1ccccc1N1CC=C(c2cccc([N+](=O)[O-])c2)NC1=O	nt	6%	4%	13%	nt	1%	nt	nt
CCOC(=O)c1c(NC(=O)c2ccc(Cl)cc2)csc1C	-8%	3%	-9%	2%	-5.5%	0%	?	16%
COCCCN1C(=O)/C(=C\c2cccs2)C(C(=O)OC)=C1C	nt	-7%	3%	-2%	nt	0%	14%[46.1 µM]	5%[46.1 µM]
O=C(CSc1nc2ccccc2nc1N1CCOCC1)Nc1ccccc1F	nt	-14%	17%	15%	nt	1%	nt	nt
O=C(Cc1ccccc1)Nn1c(-c2ccccc2F)nc2ccccc2c1=O	nt	nt	-1%	-17%	nt	8%	3%[46.1 µM]	-6%
CCOc1ccc(C(=O)CCC(=O)NNC(=O)c2ccncc2)cc1	nt	nt	-1%	-8%	nt	nt	0%	2%
CCc1nc2ccc(C(=O)NCc3ccc(SC)cc3)cc2nc1CC	-5%	nt	10%	nt	-3.4%	nt	nt	6%[46.1 µM]
O=C(NC1CC(=O)N(c2cccc(F)c2)C1)c1cccs1 (stereo unspecified)	-7%	nt	-13%	nt	0.8%	nt	nt	-5%[46.1 µM]
Cc1ccccc1-c1cc(C(=O)N/N=C/c2cccnc2)c2ccccc2n1	nt	-8%	-14%	-1%	nt	3%	-9%[46.1 µM]	-2%[46.1 µM]
CCOc1ccc(C2C(C(=O)c3ccco3)=C(O)C(=O)N2CCN2CCOCC2)cc1OCC (stereo unspecified)	nt	1%	8%	9%	nt	11%	nt	nt
CCOC(=O)C1CCN(c2ncnc3c2oc2ccccc23)CC1	0%	-59%	nt	16%	-21%	-3%	-7%	-23%
Nc1cnc(-c2ccccc2)nc1Cl	2%	4%	79%[activator]	-12%	-3.0%	-12%	?	-1%
Cc1ccc(-c2csc3ncn(CC(=O)OC(C)C)c(=O)c23)cc1	nt	9%	-13%	-19%	nt	-1%	?	?
CCOC(=O)c1ccc(NC(=O)CSc2nnc(COc3ccccc3OC)n2C)cc1	4%	-24%	-19%	5%	9.2%	1%	-10%	3%
Cc1ccc(C)c(NC(=S)N(C)CCc2ccccn2)c1	2%	10%	?	-20%	5.0%	13%	7%	8%
COc1cc(NC(=O)C2CCCN2S(=O)(=O)c2ccc3c(c2)CCC(=O)N3)cc(OC)c1 (stereo unspecified)	-4%	-5%	-23%	12%	4.0%	-1%	nt	nt
CN1CCCN(Cc2ccc(Cl)cc2Cl)CC1	0%	-2%	nt	-8%	1.9%	-4%	-44%	?
COc1ccc(CN2CCC(CO)(Cc3cccc(C(F)(F)F)c3)CC2)cc1Cn1cccn1	nt	0%	?	-1%	nt	-1%	nt	nt
CCOC(=O)c1nnn(CC(=O)N2N=C(c3ccc(Cl)cc3)CC2c2ccccc2)c1C(=O)OCC (stereo unspecified)	0%	14%	-6%	-1%	-4.8%	-4%	-21%	-23%
CCc1ccc(-n2c(=S)sc3c(=O)n(-c4ccccc4)c(SCC(=O)O)nc32)cc1	nt	12%	-16%	-1%	nt	-2%	?	11%[46.1 µM]
O=C1OC(CN(Cc2ccccc2)Cc2ccccc2)CN1N=Cc1ccc([N+](=O)[O-])o1 (stereo unspecified)	nt	nt	-9%	2%	nt	nt	?	-13%[46.1 µM]
CN(C)c1nc(Oc2ccc(=O)n(C)n2)nc(N2CCOCC2)n1	-2%	2%	-10%	18%	5.9%	-1%	-1%	?
O=C1Nc2ccc(S(=O)(=O)N3CCCC3C(=O)O)c3cccc1c23 (stereo unspecified)	8%	?	-11%	16%	-5.5%	7%	-4%	nt
CCC(Sc1nc(=O)cc(N)n1CCc1ccccc1)C(=O)Nc1cc(C)on1 (stereo unspecified)	-2%	?	-8%	8%	-5.0%	5%	nt	nt
C=CCC(=O)OCC(=O)Nc1ccc(Cl)cn1	2%	-4%	4%	0%	-0.5%	-7%	-10%	4%
CCOC(=O)Cc1cc(-c2ccc(O)cc2)nc2ccc3ccccc3c12	8%	-9%	-25%	-11%	-11%	-3%	?	-4%
COc1ccc(/C=C/C(=O)NCCCc2ccccc2)cc1	12%	-15%	-14%	-12%	-4.2%	-36%	21%	25%
Cc1nn(-c2ccccc2)c(=O)c2ccccc12	nt	nt	18%	18%	nt	2%	9%[46.1 µM]	-16%
COC(=O)c1sccc1-c1ccc(/C=N/OC(=O)c2ccccc2)o1	-16%	-7%	19%	-16%	-22%	-12%	22%	-4%
CCOc1ccc(-n2c(O)cc(=O)[nH]c2=O)cc1	nt	?	-12%	5%	nt	-1%	nt	nt
CCOC(=O)c1cnc(SC2CC(=O)N(c3ccc(OC)c(OC)c3)C2=O)nc1N (stereo unspecified)	0%	-14%	-4%	11%	4.4%	-12%	10%&10%	11%
CC(C)(C)c1ccc(OCC(=O)NNC(=O)C2CCCO2)cc1 (stereo unspecified)	nt	1%	-5%	-18%	nt	2%	?	13%
O=C(CN1C(=O)/C(=C\c2ccccc2Br)Oc2ccccc21)NCCCN1CCOCC1	nt	-1%	-14%	6%	nt	29%	nt	nt
Cc1ccc2cccc(SCC(=O)NCc3ccco3)c2n1	-6%	-4%	21%	-5%	0.0%	5%	6%	11%
CCOc1cc(C(=O)Nc2ccc(NC(=O)c3cc4ccccc4o3)c(OC)c2)cc(OCC)c1OCC	9%	nt	-28%	nt	1.0%	nt	nt	2%[46.1 µM]
Cc1ccc(S(=O)(=O)Oc2ccccc2-c2ccccc2)cc1	nt	nt	15%	-20%	nt	nt	?	?
O=C(Nc1nc2ccccc2[nH]1)c1ccc(Cl)c(S(=O)(=O)N2CCCC2)c1	-8%	10%	?	-2%	-3.4%	-5%	?	?
C=CCN1C(=O)c2ccc(C(=O)NCC(c3ccccc3)N(C)C)cc2C1=O (stereo unspecified)	nt	17%	-24%	-6%	nt	9%	19%	?
CSCCC(NC(=O)COc1ccccc1)C(=O)NC1CCC(C)CC1 (stereo unspecified)	nt	nt	3%	16%	nt	-5%	-19%	-19%
CC1=NNC(=O)C1CC(=O)N/N=C/c1sccc1C (stereo unspecified)	nt	0%	19%	-15%	nt	3%	5%[46.1 µM]	7%
Cc1cc(C)n(CCCNC(=O)c2ccc(S(=O)(=O)NCc3ccco3)cc2)n1	-3%	-1%	11%	6%	8.2%	6%	4%&0%	32%
O=C(Nc1sc2c(c1CN1CCOCC1)CCC2)c1ccc(F)cc1	-17%	19%	14%	-7%	-6.8%	-10%	?	10%
O=C(N/N=C/c1cn(-c2ccccc2)nc1-c1cc2ccccc2o1)c1cccnc1	20%	16%	-98%	-6%	-8.7%	-7%	?	?
Cc1ccc(C(C)C)c(OCC(=O)NNC(=O)C(C(C)C)N2C(=O)c3ccccc3C2=O)c1 (stereo unspecified)	4%	-11%	-19%	-3%	-11%	26%	-3%	2%
O=C(CNC(=O)c1ccc(Br)o1)Nc1cccc(-c2cnc3ccccc3n2)c1	-6%	-14%	1%	2%	-0.8%	4%	?	-18%
CCCNCc1cc(OC)c(OCC(=O)NCCc2ccccc2)cc1Br	2%	19%	-10%	-5%	0.3%	-1%	?	2%
Cc1ccc(C(=O)NCC(=O)OCc2nnc(-c3ccccc3)o2)cc1	nt	-1%	-8%	-10%	nt	-3%	16%	25%
Cn1c(C(=O)N2CCC3(CC2)OCCO3)cc2c(=O)n(C)c3ccccc3c21	7%	-6%	0%	9%	1.7%	2%	-5%	-2%
Cc1ccc(-n2c(O)c(/C=N/N3CCOCC3)c(=O)[nH]c2=S)cc1	-8%	2%	0%	12%	-12%	-9%	7%	4%
O=C(Cc1ccc(-n2cnnn2)cc1)NC12CC3CC(CC(C3)C1)C2	-4%	-9%	28%	23%	0.0%	3%	-5%	-22%
O=C(Nc1cccc(O)c1)c1cc2nc(-c3ccc(Br)cc3)cc(C(F)(F)F)n2n1	-2%	nt	-17%	nt	7.0%	nt	6%[46.1 µM]	30%[46.1 µM]
O=S1(=O)N(Cc2ccccc2)CCCN1Cc1cccc(Cl)c1	-13%	nt	40%[activator]	nt	-4.7%	nt	nt	2%[46.1 µM]
O=c1[nH]nc(Cc2ncc(C(F)(F)F)cc2Cl)c2ccccc12	nt	-1%	?	14%	nt	7%	-5%[46.1 µM]	-14%[46.1 µM]

Remaining list, next part:
SMILES	Cruzain noTriton	NS1 function inh	StopGo reporter	RE007 growth inh	Cruzain inh Det	SARS PLP yeast	Marburg entry inh	LASV entry inh
COc1ccc(OC)c(N(CC(=O)NC2CCCC2)S(=O)(=O)c2ccc(OC)c(OC)c2)c1	nt	-2%	-3%	-4%	nt	5%	-17%	10%
Cc1cc(/C=N/n2cnnc2)c(C)n1-c1ccc(C(=O)O)cc1	0%	?	-15%	10%[3.69 µM]	0.4%	5%	-8%	3%
COc1ccc(C(=O)NC(=S)N(Cc2ccccc2)Cc2ccccc2)cc1	-22%	-82%	13%	-19%	0.8%	0%	-26%	?
O=C(CN1CCOCC1)N(c1ccccc1)c1ccc2ccccc2c1	3%	-55%	11%	-13%	3.1%	-17%	-27%[46.1 µM]	7%

Bioassay records deposited in PubChem BioAssay by National Center for Advancing Translational Sciences (NCATS).

An unsorted share of the library. About 4.7% of those tested had a hit in this group.
